GIV Gai3 FP: inhibitors of GIV GBA-motif binding to rat Galpha-i3. Galpha-i3/FITC-GIV peptide fluorescence polarization, 90 min; hits give low values; scaled: aluminum fluoride 0%, vehicle 100%. AID 1224905. 0.42% of 210,000 active. percent of control (FP), % (concentration not given with the values);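 active means replicate mean at 85% of control or lower, very high polarization wells dropped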;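 further: wells of about 15 µL received 100 nL stock; the first replicate is given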
Target sequence (P08753 whole entry, looked up): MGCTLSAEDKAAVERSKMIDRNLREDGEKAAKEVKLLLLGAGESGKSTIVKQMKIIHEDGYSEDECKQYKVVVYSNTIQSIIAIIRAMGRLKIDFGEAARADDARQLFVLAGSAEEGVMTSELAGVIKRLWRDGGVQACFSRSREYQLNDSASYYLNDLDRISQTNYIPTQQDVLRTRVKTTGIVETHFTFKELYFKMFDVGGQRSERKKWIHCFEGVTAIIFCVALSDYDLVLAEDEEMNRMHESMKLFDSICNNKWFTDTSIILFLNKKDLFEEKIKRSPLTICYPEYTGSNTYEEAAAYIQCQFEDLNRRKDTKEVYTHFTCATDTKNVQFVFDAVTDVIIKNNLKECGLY
Sa growth inh: inhibitors of Staphylococcus aureus growth at 42 °C. 0.53% of 170,000 active. relative growth, % (concentration not given with the values). S. aureus RN4220 growth, OD600, 20 h; hits give low values;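 active means growth at 42 °C up to 50% and 20 or more points under that at 30 °C, or under 10% at both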;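 further: 300 nL library stock went into each well; scaled to the means of positive and negative controls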
HCMV NEC inh: inhibitors of HCMV UL50-UL53 nuclear egress complex interaction; HTRF UL50-UL53 interaction, normalized percent inhibition; inhibition, % (test concentration not listed); 0.15% of 190,000 active;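 active means both replicates at 50% or more, plus weaker picks with an unusually low signal ratio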;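 further: stock transfer was 100 nL into about 20 µL; 0% = negative control wells and 100% = wells with untagged competitor protein; inactives centre near -12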
Sa growth inh second temp: recorded beside Sa growth inh, whose call it bears; relative growth, %; measured here: growth at 30 °C;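 optical density after 20 h as mean of two plates; 100% = untreated growth and lower means inhibition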
An asterisk follows results filed as active; · = not tested or not shown; & = joins results of further samples.

SMILES	GIV Gai3 FP	Sa growth inh	Sa growth inh second temp	HCMV NEC inh
CC1(C)C(C#N)=C(SCC(N)=O)NC(=O)C1C#N (stereo not given)	130	93	84	-17
CCOC(=O)c1c(S(=O)(=O)N2CCN(c3ccccc3OC)CC2)c(C)n(C)c1C	105	102	104	·
Cc1nc2c(o1)N(c1ccccc1)C(N)=C(C#N)C2c1c(Cl)nn(-c2ccccc2)c1C (stereo not given)	·	71	47	3
CCOC(=O)C1CCN(C(=O)c2cccc(C3CCCN(C(=O)NC)C3)c2)CC1 (stereo not given)	106	·	·	-24
O=C(NC1CCCCC1)NC1CCN(CC(=O)c2ccc(Cl)cc2)CC1	103	107	83	-3
Cc1ccc(NC(=O)C2CC(=O)n3cnnc3N2)cc1Cl (stereo not given)	102	101	73	26
CN(C)C(=O)/C=C/c1ccccc1	98	88	80	-30
CCCN1CCN(C(=O)C(C)N2C(=O)CCCc3ccccc32)CC1 (stereo not given)	106	·	·	2
Cc1nc2cc(NC(=O)c3ccc(N4C(=O)CCC4=O)cc3)ccc2s1	100	89	86	·
CC(=NCc1cccnc1)c1ccccc1O	115	84	101	-3
Cc1c(Cl)ccc2sc(N3CCN(C(=O)c4ccco4)CC3)nc12	96	130	79	·
O=c1c2oc3ccccc3c2n(Cc2cccc(C(F)(F)F)c2)c(=O)n1Cc1ccc2c(c1)OCO2	109	109	100	·
Cc1noc(/C=C/c2cccs2)c1S(=O)(=O)N1CCC(C(=O)N2CCCCC2)CC1	106	108	104	-15
CSc1nc2ccc(N)cc2s1	·	80	97	9
CCOC(=O)C1CCN(c2c(C(=O)c3ccccc3)cnc3ccc(OC)cc23)CC1	100&93	49	52	-16&-10
Cc1ccc(C=NN2CCN(Cc3ccccc3)CC2)cc1	100	96	83	·
Cc1ccccc1-n1nc2c(c1NC(=O)/C=C\c1ccc3c(c1)OCO3)CS(=O)(=O)C2	103	106	85	-70
CCCn1c(N)c(C(=O)CSc2nc3ccccc3c(=O)n2CCC)c(=O)[nH]c1=O	·	71	82	-19
COc1ccc(N2CC(NC(=O)N(Cc3ccccc3)C(C)C)CC2=O)cc1 (stereo not given)	104	105	84	-14
CCOc1ccccc1C1C2=C(CC(C)(C)CC2=O)Nc2onc(C)c21 (stereo not given)	109	·	·	-18
CC1CCCCN1C(=O)Cn1cc(C(=O)C2CC2)c2ccccc21 (stereo not given)	100	89	80	10
O=C(CN(Cc1ccccc1)S(=O)(=O)c1ccc(Cl)cc1)N1CCN(c2ccc(F)cc2)CC1	107	·	·	-4
COC(=O)CNC(=O)NCCCn1c(C(F)(F)F)nc2cccnc21	80*	·	·	-8
Cc1ccc2nc(CSc3nnc(-c4ccccc4)o3)cc(=O)n2c1	·	87	91	-8
Brc1c(CSc2nc3ccccc3[nH]2)nc2ccccn12	102	·	·	-6
O=C(NCCN1CCN(C(=O)c2ccc(Br)cc2)CC1)C(=O)Nc1ccc(F)cc1	97	·	·	-28
CCC(=O)C1=C(c2ccc(OC)c(OC)c2)N(C(=O)CC)n2c(CC)nnc2S1	99	98	91	·
Cc1ccccc1Cn1c(CCCNC(=O)C2CCCCC2)nc2ccccc21	106	112	83	-17
CCOc1ccc(C2SCC(=O)N2c2c(C)n(C)n(-c3ccccc3)c2=O)cc1 (stereo not given)	106	·	·	-5
C/S(=N\S(=O)(=O)c1cccc2nsnc12)c1ccc(C(F)(F)F)cn1 (stereo not given)	105	124	90	-7
CS(=O)(=O)c1cccc(S(=O)(=O)N2CCSCC2)c1	109	90	99	-9
Cc1ccc(CNC(=O)C2CCCN(S(=O)(=O)c3cccc4nsnc34)C2)cc1 (stereo not given)	111	103	100	-5
Cc1cc(C(F)(F)F)nn1Cc1ccc(C(=O)Nc2ncc(Br)s2)o1	115	91	72	·
OC(C#CCN1CCCC1)c1ccccc1 (stereo not given)	·	104	90	-6
CCOC(=O)c1cn[nH]c1S(=O)(=O)Nc1cc(C)ccc1C	102	·	·	-26
Cc1nn2c3c(nnc2c1-c1ccccc1)C(=O)CC(C)C3 (stereo not given)	100	·	·	-120
O=c1c2c([nH]c3ccccc13)C(=C1CCCC1)CC2	108	98	96	-6
CCOc1ccc(C(=O)OCC(=O)N2CCCC2)cc1	·	137	95	-6
Cn1cnc2onc(C(=O)NC3CCCCC3)c2c1=O	106	97	93	-7
Cc1ccc(NC(=O)C(C)Sc2nc(=O)cc(N)n2-c2ccccc2)cc1 (stereo not given)	104	114	91	-17
O=C(Nc1nc2n(n1)C(c1ccccc1)C=C(c1ccccc1)N2)c1ccco1 (stereo not given)	130	65	51	-33
C#CCn1cnc2c(cnn2-c2ccccc2)c1=O	107	·	·	-13
Cc1cc(F)ccc1NCC(=O)Nc1ccc2c(c1)OCCO2	·	107	88	-39
COc1ccc(NS(=O)(=O)c2ccc3[nH]c4c(c3c2)CCCC4)cc1OC	104	67	89	·
O=C1Cc2cc(S(=O)(=O)N3CCCCC3)ccc2N1	106	91	97	·
O=C(COC(=O)c1ccccc1Br)Nc1ccccc1Cl	·	110	83	-4
Cc1ccc2[nH]c(=O)c(C3=NN(C(=O)CCC(=O)O)C(c4ccccc4)C3)c(-c3ccccc3)c2c1 (stereo not given)	108	75	90	·
O=C(CC12CC3CC(CC(C3)C1)C2)N1CCCOC1	104	109	77	-2
Cc1ccc(C)c(S(=O)(=O)c2nnn3c2nc(NCc2ccc4c(c2)OCO4)c2sccc23)c1	102	131	90	·
Cn1nc(C(=O)N2CCc3ccccc32)c2c1-c1ccccc1S(=O)(=O)C2	108	92	95	14
CCOc1ccc(C(=O)Nc2nc(-c3ccc(Br)cc3)ns2)cc1	102	100	84	-28
OC(COc1ccc(F)cc1)CN1CCN(c2nccc(C(F)(F)F)n2)CC1 (stereo not given)	109	100	99	·
COC(=O)Nc1nccs1	·	96	93	-9
COCc1cc(C)nc(SCC(=O)NC2C3CC4CC(C3)CC2C4)c1C#N (stereo not given)	101	91	81	·
CNc1nc(C)c(C(=O)OCc2ccccc2)s1	99	106	81	0
Cn1nc(-c2ccc(-c3ccn[nH]3)s2)cc1C(F)(F)F	114	95	51	-8
O=C(CCn1c(=O)c2cccn2c2cccnc21)NCc1ccccc1F	108	99	94	·
Cc1cc(OCCCn2c(CCNC(=O)C3CCCCC3)nc3ccccc32)ccc1Cl	108	81	85	6
Cn1nc(C(F)(F)F)c(-c2ccccc2)c1N1C(=O)CSCC1=O	109	103	80	-8
Cn1c(=O)c2[nH]c(NC3CCCC3)nc2n(C)c1=O	97	84	85	·
Following part:
SMILES	GIV Gai3 FP	Sa growth inh	Sa growth inh second temp	HCMV NEC inh
CC(=O)NCC12CC3CC(CC(C3)C1)C2	98	107	106	-4
COc1ccccc1Nc1nn(CN2CCCCC2C)c(=S)s1 (stereo not given)	·	46	35	-37
COC(=O)c1ccc(C2C(C#N)=C(N)Oc3n[nH]c(-c4cccc([N+](=O)[O-])c4)c32)cc1 (stereo not given)	97	·	·	-37
Cc1ccc2[nH]c(=O)c(CN3CCOCC3)c(-c3ccccc3)c2c1	·	112	106	7
CCN1CCN(CCCNC(=O)c2cc(=O)n(CC)c3c2c(=O)n(CC)c(=O)n3C)CC1	100	·	·	-23
COCCN(Cc1ccc(C)c(Br)c1)S(=O)(=O)c1ccc2[nH]c(=O)ccc2c1	101	92	84	·
CC1=NS(=O)(=O)c2cc(S(=O)(=O)N3CCN(c4cccc(Cl)c4)CC3)ccc2N1	101	·	·	0
Cc1ccc(C(C)C)c(OCCCn2c(=O)oc3ccc(C)cc32)c1	99	84	88	-9
Cc1cc(=O)[nH]c(SCc2ccc(C(=O)Nc3nccs3)cc2)n1	103	126	95	-22
CCc1ccc(CNC(=O)c2sc3ncccc3c2-n2c(C)ccc2C)cc1	99	84	72	·
CC(=O)Nc1ccc2c(c1)C1C=CCC1C(c1cccc(Cl)c1Cl)N2 (stereo not given)	·	103	105	-3
Cc1cccc(C=Nc2ccc3[nH]ncc3c2)c1O	111	121	100	-10

Looked up one by one from above (4):
SMILES	GIV Gai3 FP	Sa growth inh	Sa growth inh second temp	HCMV NEC inh
CC(=O)NCC12CC3CC(CC(C3)C1)C2	98	107	106	-4
Cc1ccc2[nH]c(=O)c(CN3CCOCC3)c(-c3ccccc3)c2c1	·	112	106	7
Cc1ccc(C(C)C)c(OCCCn2c(=O)oc3ccc(C)cc32)c1	99	84	88	-9
CCN1CCN(CCCNC(=O)c2cc(=O)n(CC)c3c2c(=O)n(CC)c(=O)n3C)CC1	100	·	·	-23

(next part)
SMILES	GIV Gai3 FP	Sa growth inh	Sa growth inh second temp	HCMV NEC inh
Cc1cc(Cl)ccc1OC(C)C(=O)N=Nc1c(O)n(CO)c2ccccc12 (stereo not given)	·	105	51	-32
ONC=Nc1ccccc1Sc1nc2cc(Cl)ccc2s1	102	81	76	-14
COc1ccc(C(=O)OCC(=O)NCc2ccc3c(c2)OCO3)cc1S(=O)(=O)N1CCOCC1	·	70	94	-10
Cc1ccccc1C(=O)N1CCN(c2nc3cc(Br)ccc3n3cccc23)CC1	95	·	·	-8
CCS(=O)(=O)N1CCC2(CC1)OC(=O)C(C)=C2C(=O)NCc1cccc(Cl)c1	97	79	86	·
O=C(/C=C/c1cc2c(cc1Br)OCO2)N1CCN(Cc2ccccc2)CC1	102	·	·	-17
CC(C)c1ccc(-c2noc(SCC(=O)NCC3CCCO3)n2)cc1 (stereo not given)	100	·	·	-8
O=C(COc1ccccc1)Nc1ccccc1	98	103	91	-17
Cc1n[nH]c(=O)c2noc(/C=C/c3ccc(C(F)(F)F)cc3)c12	107	105	101	4
CCOC(=O)c1ccc2nc(C(F)(F)F)nc(NCCCN3CCCC3=O)c2c1	101	80	84	-38
CC(C)(C)NC(=O)CSc1nc2ccccc2nc1SCC(=O)NC(C)(C)C	·	90	90	-14
O=C1C=CC(=O)C(Nc2ccccc2)=C1	·	148	53	-29
COc1cccc(C(=O)NCCNc2nc3cc(C)cc(C)c3cc2C#N)c1	104	114	86	-14
CCc1cccc(NC(c2ccccc2)c2nnc(-c3ccccc3F)o2)c1 (stereo not given)	104	87	82	-7
COc1cccc(NC(=O)N(Cc2c[nH]c3ccccc23)C2CCCCCC2)c1	104	112	87	-7
O=C(NCc1cccs1)C(Cc1ccccc1)n1cccc1 (stereo not given)	103	118	91	0
Nc1c(C(=O)Nc2ccc(S(N)(=O)=O)cc2)sc2nc(-c3ccccc3)cc(C(F)(F)F)c12	150	·	·	-16
Clc1ccc2nc(CSc3nc4ccccc4o3)cn2c1	102	·	·	-5
COc1cccc(NC(=O)Nc2nnc(-c3cc4ccccc4o3)o2)c1	113	·	·	-19
COC(=O)Nc1ccc(SCC(=O)c2ccccc2)cc1	·	117	97	-4
CCOc1ccc(CNC(=O)c2ccc(Cl)c(-n3c(C)nc4cccnc43)c2)cc1	115	·	·	-5
O=S(=O)(NCCc1cn2ccsc2n1)c1ccc(Cl)cc1	107	93	97	·
C=CCn1c(=S)sc2c(SCC(N)=O)ncnc21	101	73	87	·
Cc1cccc(NC(=O)C2CCCN(c3nc4ccccc4s3)C2)c1C (stereo not given)	100	97	87	-14
O=C(O)c1ccc(C2Nc3ccccc3C3C=CCC32)cc1 (stereo not given)	·	122	102	-50
Cc1c(-c2ccccc2)n(-c2ccccc2O)c2nc3c(c(=O)n(C)c(=O)n3C)n12	112	96	85	-13
CCOc1ccc(-n2nc3ccc(NC(=O)COc4ccccc4C)cc3n2)cc1	105	108	85	-36
Cc1ccc(-c2cc(=O)n(-c3nc(C)cc(C)n3)[nH]2)cc1	102	93	68	-18
O/N=C(/CN1CCOCC1)c1ccccc1	101	109	101	3
C#CCn1c(C2CCCN2C(C)=O)nc2ccccc21 (stereo not given)	107	·	·	-8
COc1ccc(NC(=O)Nc2ccc(N3CCOCC3)cc2)cc1	93	107	98	-21
Cc1ccc(NC(=O)Cn2c(=O)n(Cc3ccc4c(c3)OCO4)c(=O)c3ccccc32)cc1	101	89	84	-24
COc1cccc(CNc2ccc(N3CCCCC3)cc2)c1OC	107	103	98	-9
Cc1ccc(-c2noc(CN(C3CCCCC3)S(=O)(=O)c3ccc(Cl)cc3)n2)cc1	104	98	83	-31
COC(=O)CSc1nc(C)nc2c1c(=O)n(C)c(=O)n2C	101	94	89	·
CCOc1ccc(NC(=O)C(=O)NCCN2CCN(Cc3ccc(F)cc3)CC2)cc1	94	·	·	-15
CC(=O)N1c2ccccc2NC2=C(C(=O)CC(c3ccccc3F)C2)C1c1ccccc1 (stereo not given)	94	85	65	0&2
Cc1sc(NC(=O)Nc2ccccc2)c(C(N)=O)c1C	102	92	79	11
COc1ccc2nc(Cl)c(CNC3CCCC3)cc2c1	99	104	90	-19

Filtered by structure: the entries above containing a furan ring, fused or not (5)
SMILES	GIV Gai3 FP	Sa growth inh	Sa growth inh second temp	HCMV NEC inh
Cc1c(Cl)ccc2sc(N3CCN(C(=O)c4ccco4)CC3)nc12	96	130	79	·
O=c1c2oc3ccccc3c2n(Cc2cccc(C(F)(F)F)c2)c(=O)n1Cc1ccc2c(c1)OCO2	109	109	100	·
Cc1cc(C(F)(F)F)nn1Cc1ccc(C(=O)Nc2ncc(Br)s2)o1	115	91	72	·
O=C(Nc1nc2n(n1)C(c1ccccc1)C=C(c1ccccc1)N2)c1ccco1 (stereo not given)	130	65	51	-33
COc1cccc(NC(=O)Nc2nnc(-c3cc4ccccc4o3)o2)c1	113	·	·	-19

Assay outcomes as filed in PubChem.
